AID504770 = growth inhibition of E. coli YBA685, primary screen, V. cholerae RctB inhibitors | AID 504770, 2011 | z-score (no concentration beside the values) | 0.27% of 130,000 active | E. coli YBA685 rctB-dependent plasmid, OD600 growth, 3 h; hits give low values;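 active means z-score under -2 on both plates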;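 further: wells of about 30 µL received 100 nL stock; score is relative to mean and SD of the test wells; the first replicate is given; strong numbers were not always called active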
Ba CapD inh = Bacillus anthracis CapD inhibitors, primary screen, biochemical, fluorescence intensity | CapD gamma-glutamyltranspeptidase (Bacillus anthracis Ames Ancestor) | purified CapD enzyme, fluorescence intensity read-out; hits give low values; some hits fall short of the stated cut | z-score (test concentration not listed) | 0.23% of 140,000 active | AID 492967, 2010;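 active means z-score under -4 in either of two replicates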;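 further: stock transfer was 100 nL into about 40 µL; score is relative to mean and spread of the plate; one replicate is shown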
Numbers without * were called inactive; . = not tested or not shown; & = joins results of further samples. The list is partial, so the mix of outcomes need not match the whole.

Molecule	AID504770	Ba CapD inh
Cn1c(=O)n(CC(=O)NCc2cccnc2)c(=O)c2ccccc21	.	4.7
O=S(=O)(c1c(Cl)sc(Cl)c1Br)N1CCCC1	-0.9	-0.78
COc1ccc(C2CC(c3cccs3)=NN2S(=O)(=O)c2ccc(C)cc2)cc1 (centres undefined)	.	0.36
COc1ccc(C2SCC(=O)N2CCOc2ccccc2Cl)cc1OC (centres undefined)	.	0.35
O=C(O)CN1C(=O)c2ccccc2S1(=O)=O	.	0.15
O=C(COC(=O)c1ccccc1Nc1cccc(F)c1)c1ccccc1	.	0.75
O=C(OCC#Cc1ccccc1)N1CCN(c2nc(-c3ccccc3)ns2)CC1	.	-1.3
Cc1cc2occ(CC(N)=O)c2cc1Cl	-0.6	0.005
CCOC(=O)c1ccc(NC(=O)c2cc(=O)c3ccccc3o2)cc1	0.5	0.34
CCOC(=O)C1=C(C)N=c2s/c(=C\c3cc(Br)ccc3O)c(=O)n2C1c1cccs1 (centres undefined)	.	0.43
Cc1ccc(-n2nc(C(=O)N3CCCC(C)C3)c3c4ccccc4n(C)c3c2=O)cc1 (centres undefined)	2.7	-0.43
N#CC1=C(N)OC2=C(C(=O)CCC2)C1c1ccc(OC(=O)c2ccccc2Cl)cc1 (centres undefined)	.	-0.91
CCN1CCN(c2ccc(NC(=O)c3cccc(Cl)c3Cl)cc2)CC1	0.3	.
O=C(NCCCN=C1NS(=O)(=O)c2ccccc21)c1ccncc1	-0.25	.
CCN(Cc1ccccc1)C(=O)Cn1c(=O)n(-c2cccc(OC)c2)c(=O)c2sccc21	-0.75	-0.09
CC1CCN(C(=O)CC(C(=O)N2CCc3ccccc32)n2ccnc2)CC1 (centres undefined)	-0.25	0.04
O=C1C2CCCCC2C(=O)N1c1cccc(OS(=O)(=O)c2ccccc2)c1 (centres undefined)	.	-0.68
CCOc1ccc2c(c1)C(NCCN1CCOCC1)CC(C)(C)O2 (centres undefined)	1.7	.
COc1ccc(CCC(=O)N(C)C)cc1	1.9	-0.41
COc1cc(OC)c(C2=NOC(C(=O)Nc3cc(C)n(CC(=O)NCc4ccco4)n3)C2)cc1Cl (centres undefined)	-0.2	0.76

Profiles as entered above. Order of values: AID504770	Ba CapD inh
`O=C(COC(=O)c1ccccc1Nc1cccc(F)c1)c1ccccc1` across the screens: .	0.75
`CCOC(=O)c1ccc(NC(=O)c2cc(=O)c3ccccc3o2)cc1` across the screens: 0.5	0.34
`COc1cc(OC)c(C2=NOC(C(=O)Nc3cc(C)n(CC(=O)NCc4ccco4)n3)C2)cc1Cl` (centres undefined) across the screens: -0.2	0.76
`CCN1CCN(c2ccc(NC(=O)c3cccc(Cl)c3Cl)cc2)CC1` across the screens: 0.3	.
`O=S(=O)(c1c(Cl)sc(Cl)c1Br)N1CCCC1` across the screens: -0.9	-0.78

Next structures follow:
Molecule	AID504770	Ba CapD inh
COC(C(=O)O)c1ccccc1 (centres undefined)	-0.1	-0.45
CCCC(CCC)C(=O)Nc1ccc2c(c1)N(C(=O)CN1CCN(C)CC1)c1ccccc1CC2	.	1
CC1=CC(=NC(=O)c2ccco2)C(C)=CC1=O	0.4	.
COc1ccc(Nc2nc(C(=O)N3CCN(C)CC3)cs2)cc1	0	0.015
CCOC(=O)C1CCN(c2cc(C(F)(F)F)nc3ccc(Br)cc23)CC1	-0.5	1.6
Cn1c(=O)c2c(nc(N3CCCC3)n2Cc2ccc(Cl)cc2)n(C)c1=O	-0.25	0.34
CSc1nnc(-c2ccccc2)o1	1.1	-0.56
COc1ccc(-c2oc3ncn4nc(CSc5nc6ccccc6o5)nc4c3c2-c2ccc(OC)cc2)cc1	.	7.4
Cc1nnc(NC(=O)c2ccc3c(c2)C(=O)N(C2CCCCC2)C3=O)s1	0.95	-0.37
CC1CCN(CCC(=O)Nc2ccc3c(c2)OCO3)CC1	-0.65	0.21
C/C(=C\c1c2ccccc2cc2ccccc12)[N+](=O)[O-]	.	4.8
CCCCCCC(=O)Nc1cccc(C(=O)N/N=C/c2cc(OC)ccc2F)c1	.	0.55
Cc1ccc(NC(=O)C(Cc2ccccc2)NS(=O)(=O)c2ccc3c(c2)oc(=O)n3C)cc1 (centres undefined)	-0.5	-0.57
COc1ccc2c(C)cc3nnc(SCC(=O)N(C)Cc4ccco4)n3c2c1	-0.1	.
COC(=O)CCC(=O)Nc1ccccc1C(N)=O	-0.2	0.51
O=c1n(-c2ccccc2)c(=O)n2n1CC(O)C2	-0.55	.
O=C1CSC(Cc2cccs2)=N1	.	-1.3
N/C(=N\OC(=O)C12CC3CC(CC(C3)C1)C2)c1cccnc1	-0.35	0.29
O=C(CSc1ccc(F)c(Cl)c1)c1ccc2c(c1)OCCO2	2.2	-0.55
COC(=O)Cn1cc(C2C(C#N)=C(N)OC3=C2C(=O)CC(C)(C)C3)c2ccccc21 (centres undefined)	-0.1	.

Arranged by number of heavy atoms (low to high): part of the list above.
Molecule	AID504770	Ba CapD inh
O=C1CSC(Cc2cccs2)=N1	.	-1.3
O=c1n(-c2ccccc2)c(=O)n2n1CC(O)C2	-0.55	.
COC(=O)CCC(=O)Nc1ccccc1C(N)=O	-0.2	0.51
N/C(=N\OC(=O)C12CC3CC(CC(C3)C1)C2)c1cccnc1	-0.35	0.29
COc1ccc(-c2oc3ncn4nc(CSc5nc6ccccc6o5)nc4c3c2-c2ccc(OC)cc2)cc1	.	7.4

(listing goes on)
Molecule	AID504770	Ba CapD inh
O=C(COCc1cc(-c2ccco2)on1)NCC1CCCO1 (centres undefined)	0.5	-0.18
O=C(O)CCC(=O)N1N=C(c2c(-c3ccccc3)c3cc(Br)ccc3[nH]c2=O)CC1c1ccccc1Cl (centres undefined)	.	0.8
COc1ccc(NC(=O)C2=C(C)NC(=O)NC2c2ccc(OC)c(OC)c2)c(OC)c1 (centres undefined)	.	-0.51
CC(C)n1cc(-c2ccc(C(=O)NCCN3CCOCC3)cn2)cn1	.	1.7
c1ccc(-c2csc3ncnc(N4CCNCC4)c23)cc1	.	-0.005
COC(=O)C1=C(C)N(Cc2ccccc2)C(=O)/C1=C\c1cccc(Cl)c1	0.5	75
Nc1nc2c(c(=O)[nH]1)N(C=O)C(CNc1ccc(C(=O)N[C@@H](CCC(=O)O)C(=O)O)cc1)CN2 (some centres undefined)	0.1	-0.22&0.44
Fc1ccc2nc(-c3ccccc3)c(-c3ccccc3)nc2c1	.	-0.38
Cc1ccc(NC(=O)CNCC(C)(C)N2CCOCC2)c(Cl)c1	-0.2	.
COC(=O)c1ccc(C(=O)OC)c(NC(=O)CSc2nc(C)nc3sc4c(c23)CCCC4)c1	.	-0.43
CCn1c(SCC(N)=O)nnc1-c1ccc2[nH]c(C)c(C)c2c1	.	-0.91
O=C(Nc1nncs1)c1ccc(F)cc1	-0.75	.
FC(F)(F)c1cc(NC(=S)SCCSC(=S)Nc2cc(C(F)(F)F)cc(C(F)(F)F)c2)cc(C(F)(F)F)c1	.	0.075
COC(=O)c1csc(S(=O)(=O)Nc2ccc(Cl)cc2)c1OC	0.85	0.095
c1ccc(CN2CN=C(Nc3nc4ccccc4o3)NC2)cc1	-1.4	0.83
CN1CCN(C)C(C(=O)NNC(=O)OCCCCc2ccc([N+](=O)[O-])cc2)C1 (centres undefined)	.	0.3
CC(=O)NC(C(=O)NCc1ccc(C)cc1)C(C)C (centres undefined)	-0.3	.
C=CCNS(=O)(=O)/C=C/c1ccccc1	0.85	.
Cc1cccc(N/C(N)=N/c2nc(C(F)(F)F)cc(=O)[nH]2)c1	0.1	0.59
CCCc1c(C)nc(SCC(C)C)[nH]c1=O	0.25	0.62
CC1=CCN(S(=O)(=O)c2ccccc2)/S(=N/S(=O)(=O)c2ccccc2)C1 (centres undefined)	.	0.065
COc1ccc2c(c1)c1c3n2CCN(C2CCCCC2)C3=NCC1	-0.25	8.4
CCOC(=O)C1=C(C)Nc2ncnn2C1c1cc(Br)ccc1F (centres undefined)	.	0.2
CN1C(=O)/C(=C(/C#N)C(=O)N2CCCC2)c2ccccc21	1.9	.
CCOC(=O)C(C#N)C(Cc1ccccc1)C1CCOC(C)(C)C1 (centres undefined)	-0.25	0.09
CCc1ccccc1NC(=O)CCS(=O)(=O)c1ccc2c(c1)CCCN2C(C)=O	-1.1	-0.58
COc1ccccc1/C=N/NC(=O)c1cc(Br)ccc1Cl	.	0.3
CCOc1cc2[nH]c(=O)n(CCc3ccc(OC)c(OC)c3)c(=O)c2cc1OCC	0.05	2.2
CCSC1=NSC2=NC(=O)/C(=C\c3ccc(OC(=O)c4ccco4)c(Cl)c3)C(=N)N12	-0.75	-0.55
COc1cc(OC)nc(-c2ccc(NS(=O)(=O)c3ccc(C(C)(C)C)cc3)cc2)n1	.	-0.36
Cc1cccc(N2C(=O)CN(Cc3cccs3)C2=S)c1	0.35	-0.68
CCC(C)NC(=O)CSc1nc2ccc(Br)cc2c2nc3ccccc3n12 (centres undefined)	0.3	1.1
O=c1c(-c2ccccc2)coc2c(CN3CCCCCC3)c(O)ccc12	1.6	12
CCOc1ccccc1NC(=O)C1SC(=Nc2ccccc2OC)C(C(N)=O)=C1N (centres undefined)	-0.4	.
Cc1nn(-c2ccccc2Cl)c2[nH]c(=O)cc(C(F)(F)F)c12	0.6	25
COc1ccc(-c2ccc(/C=C3\C(=O)N(c4cccc(Cl)c4)N=C3C)o2)cc1[N+](=O)[O-]	.	0.36
COc1ccc(OC)c(C2=NOC(C(=O)NC(C)(C)C)C2)c1 (centres undefined)	0.25	20
CCN(CC)c1ccc(C=NCCc2ccccc2)c(O)c1	0.3	5.4
CC(C)C(=O)Nc1cccc(S(=O)(=O)c2cccc(NC(=O)C(C)C)c2)c1	-1.5	.
O=C(O)C1(c2ccc3c(c2)OCCO3)CCCC1	-0.7	0.52
Cn1c2c(c(=O)[nH]c1=O)C(c1ccc(Cl)cc1)C1=C(N2)c2ccccc2C1=O (centres undefined)	.	1.7
ON=C1CCCCC1	-0.55	.
Cc1cccc(OCC(=O)Nc2ccccc2N2CCCCC2)c1	1.7	-0.07
CCNC(=S)NC1CC2CCC1C2 (centres undefined)	1.8	.
CCn1c2ccccc2c2cc(CN3CCC(NC(=O)OCc4cc(C)cc(C)c4)C3)ccc21 (centres undefined)	.	18
COC(=O)CSc1nc(N2CCCCC2)c2c(c1C#N)CCCC2	.	0.99
COc1ccc(CCNc2ncc3c(n2)c(=O)c(C#N)c2[nH]c4ccccc4c(=O)n23)cc1OC	-0.45	.
O=C(OCc1nc2ccccc2c2ccccc12)C1=COCCO1	-1.4	.
O=C1C(=Nc2cccnc2)c2ccccc2N1Cc1ccccc1	0.45	.
CC(C)[C@H](NC(=O)c1ccccc1)C(=O)OCn1nnc2ccccc2c1=O	-0.05	.
COc1ccc(NC(=S)N(C(C)C)C2CCN(C(C)C)CC2)cc1	-1.1	0.12
COc1ccc(CCNC(=O)c2cc(=O)[nH]c3ccc(Br)cc23)cc1OC	-0.2	.
Cc1nc(COC(=O)c2ccc3c(c2)S(=O)(=O)c2ccccc2C3=O)cs1	-0.85	.
COc1cc2c(C)nc(C)c(C#N)c2cc1OC	0.2	.
CCCS(=O)(=O)c1c(S(=O)(=O)CCC)c2cc(-c3ccncc3)ccn2c1C(=O)N/N=C/c1ccccc1I	.	-0.25
O=C(Nc1sc2c(c1C(=O)NCc1cccnc1)CCC2)c1cccs1	-0.85	0.36
O=C(/C=C1/Nc2ccccc2NC1=O)Nc1cccc(C(F)(F)F)c1	-0.55	.
CC(=O)NC1C(Oc2ccccc2)OC2COC(c3ccccc3)OC2C1O (centres undefined)	0.7	.
CSc1cccc(OC(F)(F)F)c1NC(=O)C(C)(C)C	0.85	0.42
O=S(=O)(NCc1csc(-c2cccs2)n1)c1cccc2cccnc12	1.1	2.3

The results go on:
Molecule	AID504770	Ba CapD inh
Cc1nn(S(=O)c2ccc3ccccc3c2)c(C)c1Sc1ccc(Cl)cc1 (centres undefined)	-0.15	-1.1
COC(=O)C1=CN(Cc2ccc(OC)c(OC)c2)C=C(C(=O)OC)C1c1cc(OC)c(OC)c(OC)c1	.	51
CCOC(=O)c1c(N)sc2c1CCC(Sc1ccccc1)C2=O (centres undefined)	1.2	1.6
COc1ccc(CCNc2ncnc3sc4c(c23)CCCC4)cc1	0.45	0.13
CN(C)C(=O)/C(=C\c1ccco1)NC(=O)c1ccccc1	-0.75	-3
Cc1cc(C)nc(Sc2ccc(NC(=O)OC(C)(C)C)cc2)n1	.	-0.59
Cc1ccc(C)c(C(=O)OCC(=O)NC2CC2)c1	0.05	.
O=c1c2ccccc2nc(SCc2ccc(F)cc2)n1-c1ccccc1	0.15	-0.01
COC(=O)CSc1nnnn1-c1ccc(C(=O)OC)cc1	-0.65	-0.84
CCOC(=O)C1=CN(Cc2ccc(F)cc2)C=C(C(=O)OCC)C1c1cc(OC)c(OC)cc1OC	.	0.87
Cc1cccc2sc(NC(=O)c3ccc(COc4ccc5ccccc5c4)o3)nc12	1.2	-0.42
Cc1ccc(N2C(=O)N(Cc3cc(=O)oc4cc(C)ccc34)C(=O)C2C)cc1 (centres undefined)	-0.3	.
Cc1ccc(NCc2ccccc2O)c(C)c1	-0.9	-1.2
O=C1SC(SCc2ccccc2)=N/C1=C\c1ccco1	0.5	-0.79
O=C1C=C(O)c2nc(-c3ccccc3)cc(C(=O)O)c2C1=O	1.1	-1.4
COC(=O)CNc1cccc(C(F)(F)F)c1	-0.1	.

Bioassay records from PubChem.
